MLL AF4-AF9 inh: MLL-AF4/AF9 protein interaction inhibition | P42568 | AlphaScreen, biotin-AF4 peptide binding to FLAG-AF9 | inhibition, % at 10 µM | 350,000 tested, 0.47% active | AID 651704;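 active = every replicate reaching a set inhibition limit, whatever the replicate mean, cut at about 25% in these data; inconclusive = mean inhibition reaches that limit but some replicates miss it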;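 also: 0% = plate neutral control median and 100% = total signal loss; the record names both 10 and 1 µM as test concentration; the first replicate is given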
Target sequence (P42568 whole entry, looked up): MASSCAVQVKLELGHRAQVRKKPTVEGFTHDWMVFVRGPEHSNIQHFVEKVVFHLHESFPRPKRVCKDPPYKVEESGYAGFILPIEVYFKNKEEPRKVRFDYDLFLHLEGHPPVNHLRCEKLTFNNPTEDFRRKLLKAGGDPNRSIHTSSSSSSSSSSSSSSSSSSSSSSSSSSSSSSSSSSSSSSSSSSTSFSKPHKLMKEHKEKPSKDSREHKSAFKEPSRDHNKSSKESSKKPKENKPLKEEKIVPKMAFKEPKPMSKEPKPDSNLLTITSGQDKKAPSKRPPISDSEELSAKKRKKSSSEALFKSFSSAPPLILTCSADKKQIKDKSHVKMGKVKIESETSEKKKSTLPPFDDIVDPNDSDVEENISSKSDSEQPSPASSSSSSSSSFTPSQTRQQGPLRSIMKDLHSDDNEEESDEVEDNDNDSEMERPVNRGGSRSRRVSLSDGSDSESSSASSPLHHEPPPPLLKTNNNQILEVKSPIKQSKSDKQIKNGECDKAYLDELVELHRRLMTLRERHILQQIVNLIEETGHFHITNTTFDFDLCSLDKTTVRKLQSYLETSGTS
Numbers without * were called inactive; ? = inconclusive; & = joins results of further samples. The list is partial; the hit share may differ from the screen's.

SMILES	MLL AF4-AF9 inh
Cc1ccc(-c2ccc3c(c2)O[C@@H](CN(C)Cc2ccc(F)cc2)[C@@H](C)CN([C@H](C)CO)S3(=O)=O)cc1	-6.0
Cc1ccc(S(=O)(=O)Nc2ccc3c(c2)C(=O)N(C)[C@@H]2CC[C@H](CC(=O)O)O[C@H]2CO3)cc1	-0.4
C[C@H]1CN([C@@H](C)CO)C(=O)Cc2cc(NS(=O)(=O)c3ccccc3)ccc2O[C@H]1CN(C)Cc1ccc(C(=O)Nc2ccccc2N)cc1	-1.1
COc1ccc2c3c([nH]c2c1)[C@@H](CO)N(CC1CCOCC1)CC31CN(C(=O)c2ccc(F)cc2)C1	-1.4
CO[C@@H]1CC[C@H]2CCOc3c(C#N)cccc3C(=O)N(C)C[C@@H](c3ccccc3)CC(=O)N(C)C[C@H]1O2	-11.4
CC1(C)OCC(N)(CO)CO1	-2.4
CO[C@H]1CN(C)C(=O)c2ccc(NS(=O)(=O)c3c(C)noc3C)cc2OC[C@H](C)NC[C@@H]1C	-2.5
O=C(CCc1ccc(O)cc1)NN=Cc1cc(Br)ccc1O	1.7
O=C(C[C@H]1C=C[C@H](NC(=O)Nc2cc(F)ccc2F)[C@H](CO)O1)NCc1ccncn1	1.6
CCNC(=O)[C@H]1[C@H](CO)[C@H]2Cn3c(ccc(-c4ccccc4F)c3=O)[C@H]2N1CC	-1.4
COc1ccc2c3c(n(C)c2c1)[C@@H](CO)N(C(=O)C1CCCC1)CC31CCN(C(=O)Nc2cccc(F)c2)CC1	1.2
CC(C)CC#Cc1cnc2c(c1)C(=O)N([C@@H](C)CO)C[C@@H](C)[C@@H](CN(C)S(=O)(=O)c1ccccc1)O2	-3.4
O=C(c1ccccc1F)N1CC(=O)N2[C@H](C1)[C@H](c1ccc(C#Cc3ccccc3)cc1)[C@@H]2CO	-1.4
COC(=O)[C@@]1(Cc2ccc(OC)cc2)[C@H]2c3cc(C(=O)N4CCCC4)n(Cc4ccsc4Br)c3C[C@H]2CN1C(=O)c1ccccc1	7.1
COCC(=O)N1CC(=O)N2[C@H](CO)[C@@H](c3ccc(C#Cc4cccc(OC)c4)cc3)[C@@H]2C1	-4.0
CC(C)NC(=O)N(C)C[C@H]1OCCCC[C@H](C)Oc2ccc(NS(=O)(=O)c3ccccc3)cc2C(=O)N([C@H](C)CO)C[C@@H]1C	3.7
OC[C@H]1[C@H]2c3ccccc3NC[C@H]2N1CC1CCCCC1	0.8
COc1ccc2c3c([nH]c2c1)[C@H](CO)N(C(=O)CC1CC1)CC31CCN(C(=O)c2ccccc2)CC1	1.5
CNC[C@@H]1Oc2c(NS(C)(=O)=O)cccc2C(=O)N([C@@H](C)CO)C[C@@H]1C	-1.8
COc1ccccc1CNC(=O)C[C@@H]1C[C@H]2c3cc(NC(=O)C4CCOCC4)ccc3O[C@H]2[C@H](CO)O1	2.2
O=C(c1ccncc1)N1CC(=O)N2[C@H](CO)[C@H](c3ccc(-c4ccccc4)cc3)[C@H]2C1	0.1
Cc1ccc(C)c(S(=O)(=O)N(C)c2ccc(OC(=O)C3CCN(C(=O)c4ccc(F)cc4)CC3)cc2)c1	1.8
COc1ccc(NC(=O)N[C@@H]2CC[C@H](CCNC(=O)Nc3cc(F)ccc3F)O[C@@H]2CO)cc1	7.1
C[C@@H]1CCCCO[C@H](CN(C)Cc2ccncc2)[C@@H](C)CN([C@@H](C)CO)C(=O)c2cc(NC(=O)NC3CCCCC3)ccc2O1	-1.9
O=C(CNc1cccc(Br)c1)Nc1ccc(S(=O)(=O)N2CCCCC2)cc1	2.1

Continued, overlapping the part above by five compounds.
SMILES	MLL AF4-AF9 inh
O=C(c1ccncc1)N1CC(=O)N2[C@H](CO)[C@H](c3ccc(-c4ccccc4)cc3)[C@H]2C1	0.1
Cc1ccc(C)c(S(=O)(=O)N(C)c2ccc(OC(=O)C3CCN(C(=O)c4ccc(F)cc4)CC3)cc2)c1	1.8
COc1ccc(NC(=O)N[C@@H]2CC[C@H](CCNC(=O)Nc3cc(F)ccc3F)O[C@@H]2CO)cc1	7.1
C[C@@H]1CCCCO[C@H](CN(C)Cc2ccncc2)[C@@H](C)CN([C@@H](C)CO)C(=O)c2cc(NC(=O)NC3CCCCC3)ccc2O1	-1.9
O=C(CNc1cccc(Br)c1)Nc1ccc(S(=O)(=O)N2CCCCC2)cc1	2.1
CCOc1ccccc1NC(=S)C(=C([O-])c1ccc2c(c1)OCCO2)[n+]1ccc(CC)cc1	-2.1
CC=Cc1ccc2n(c1=O)C[C@@H]1[C@@H](CO)[C@H](C(=O)NCc3ccccc3F)N(S(C)(=O)=O)[C@H]21 (mixture of isomers)	-1.0
CN1[C@@H]2Cn3c(ccc(-c4ccccc4)c3=O)[C@H]1[C@@H](C(=O)NCC1CCCCC1)[C@@H]2CO	-45.7
C[C@@H]1CCCCO[C@H](CN(C)C(=O)Nc2ccc(F)cc2)[C@@H](C)CN([C@@H](C)CO)C(=O)c2cc(NC(=O)Nc3ccccc3)ccc2O1	1.1
Cc1ccc(S(=O)(=O)N[C@H]2CC[C@H](CC(=O)N3CCC(Cc4ccccc4)CC3)O[C@@H]2CO)cc1	1.1
CCCN(CC(=O)Nc1ccccc1C)C(=O)C1CCN(S(=O)(=O)c2ccc3c(c2)OCCO3)CC1	2.0
O=C(C[C@H]1C[C@@H]2c3cc(NC(=O)C4CCC4)ccc3O[C@@H]2[C@@H](CO)O1)NCCN1CCCCC1	3.7
Cc1ccc(S(=O)(=O)Nc2ccc3c(c2)C(=O)N(C)[C@@H]2CC[C@H](CC(=O)NCCc4ccncc4)O[C@@H]2CO3)cc1	-1.7
Cc1ccc(S(=O)(=O)Nc2ccc3c(c2)C(=O)N([C@H](C)CO)C[C@H](C)[C@H](CN(C)C(=O)Nc2ccc4c(c2)OCO4)OCCCC[C@@H](C)O3)cc1	0.8
Cc1ccc(CNC(=O)CN2c3cccc4cccc(c34)S2(=O)=O)cc1	0.1
Cc1noc(C)c1NC(=O)Nc1cccc2c1O[C@@H](CN(C)S(=O)(=O)c1cn(C)cn1)[C@@H](C)CN([C@H](C)CO)C2=O	-1.9
Cc1noc(C)c1NC(=O)N(C)C[C@H]1Oc2ccc(N(C)C)cc2CC(=O)N([C@@H](C)CO)C[C@H]1C	-1.0
C[C@H]1CN([C@@H](C)CO)C(=O)Cc2cc(NS(=O)(=O)c3ccc(Cl)cc3)ccc2O[C@@H]1CN(C)S(=O)(=O)c1cn(C)cn1	-1.2
COc1ccc(S(=O)(=O)Nc2ccc3c(c2)CC(=O)N([C@H](C)CO)C[C@H](C)[C@H](CN(C)Cc2ccccc2)O3)cc1	0.0
O=C(Cc1ccccn1)NCC[C@@H]1CC[C@@H](NC(=O)c2ccccc2F)[C@H](CO)O1	-2.4
CCCCNC(=O)C[C@H]1C[C@@]2(C(=O)OC)C(=C[C@H](C(C)(C)C)O[C@@H]2C)N(CCC2=CCCCC2)C1=O	2.5
Cc1cc2c(c(=O)o1)C1(C)CC(C)(O2)c2c(cc(C)oc2=O)O1	-3.2
COc1ccc(-c2ccc(C(=O)NCc3cccs3)c3occc23)c(C)c1	-0.2
O=C(c1ccccn1)N1CC(=O)N2[C@H](CO)[C@@H](c3ccc(C#CC4CCCC4)cc3)[C@H]2C1	1.2
CCCNC(=O)N1[C@@H](CO)[C@@H](c2ccccc2)C12CN(C(=O)CC)C2	-1.4
O=C(CN1CCOCC1)NCC[C@H]1CC[C@H](NS(=O)(=O)c2ccc(F)cc2)[C@@H](CO)O1	0.3
C[C@H]1CN([C@@H](C)CO)C(=O)c2cccc(NC(=O)c3ccc(-c4nccs4)cc3)c2O[C@H]1CN(C)Cc1ccncc1	5.3
COCC#Cc1cnc2c(c1)C(=O)N([C@H](C)CO)C[C@H](C)[C@@H](CN(C)C(=O)c1ccc3c(c1)OCO3)O2	-2.8
CN1CCN(C(=O)c2cc3c(c(-c4cccc(Br)c4)n2)[C@@H](CCO)N(S(=O)C(C)(C)C)C3)CC1 (some centres undefined)	2.5
C[C@@H]1CN([C@@H](C)CO)C(=O)Cc2cc(NC(=O)Cn3cnnn3)ccc2O[C@@H]1CN(C)S(=O)(=O)c1cn(C)cn1	-0.2

Additional structures follow:
SMILES	MLL AF4-AF9 inh
O=C(NCC[C@H]1CC[C@@H](NS(=O)(=O)c2ccccc2)[C@H](CO)O1)c1cc(Cl)cc(Cl)c1	-0.3
CCC(=O)Nc1ccc2c(c1)OC[C@@H](C)N(CC1CCOCC1)C[C@H](C)[C@@H](OC)CN(C)C2=O	0.0
CCCC(=O)Nc1ccc2c(c1)C(=O)N(C)[C@H]1CC[C@H](CC(=O)NCc3ccccc3Cl)O[C@H]1CO2	0.8
CNC[C@H]1Oc2ccc(NC(=O)Cn3cnnn3)cc2C(=O)N([C@@H](C)CO)C[C@H]1C	-2.0
CO[C@@H]1CN(C)C(=O)c2cc(NC(=O)NC3CCCCC3)ccc2OC[C@@H](C)N(C)C[C@@H]1C	2.4
CN(C)CC(=O)N1[C@H](CO)[C@@H](c2ccc(-c3ccccc3F)cc2)[C@@H]1C#N	-0.8
C[C@H](CO)N1C[C@H](C)[C@@H](CN(C)C(=O)c2cnccn2)Oc2cc(C#CCC3CCCC3)ccc2S1(=O)=O	0.8&1.6&6.1
COC(=O)N(C)C[C@H]1OCc2ccccc2-c2c(n(C)c3ccccc23)C(=O)N([C@H](C)CO)C[C@@H]1C	-1.8
COc1ccccc1-c1ccc([C@@H]2[C@@H](C#N)N(C(=O)NC3CCCC3)[C@@H]2CO)cc1	-0.8
CO[C@H]1CN(C)C(=O)c2ccc(NC(=O)C3CC3)cc2OC[C@H](C)N(C)C[C@@H]1C	-43.1
C[C@H](CO)N1C[C@H](C)[C@H](CN(C)Cc2ccccc2)OCCCC[C@H](C)Oc2ccc(NC(=O)c3ccncc3)cc2C1=O	-1.1
CCOC(=O)C1=CCN(S(=O)(=O)c2ccccc2C)C1c1ccc(F)cc1 (centres undefined)	-1.6
CO[C@H]1CN(C)C(=O)c2cc(NC(=O)NC(C)C)ccc2OC[C@@H](C)N(C(=O)CN(C)C)C[C@H]1C	0.8
C[C@H]1CN([C@@H](C)CO)C(=O)c2cccc(NC(=O)Nc3ccccc3)c2O[C@H]1CN(C)S(=O)(=O)c1cn(C)cn1	-2.6
COc1cccc(S(=O)(=O)Nc2ccc3c(c2)[C@H]2C[C@H](CC(=O)NC4CCCCC4)O[C@H](CO)[C@H]2O3)c1	-1.6
COc1ccc(-c2cnc(C(O)c3ccc(CN4CCCCC4)cc3)[nH]2)cc1 (centres undefined)	4.0
CCNC(=O)C[C@@H]1CC[C@@H]2[C@H](COc3ccc(NC(=O)c4ccccc4)cc3C(=O)N2C)O1	-3.0
C[C@H]1CN([C@@H](C)CO)S(=O)(=O)c2ccc(C3=CCCC3)cc2O[C@@H]1CN(C)Cc1cccnc1	-2.6
CCCNC(=O)C[C@H]1CC[C@H]2[C@@H](COc3ccc(NC(=O)NCCC)cc3C(=O)N2C)O1	1.9
C[C@@H]1CN([C@H](C)CO)C(=O)c2cc(C3=CCCCC3)cnc2O[C@H]1CN(C)C(=O)Nc1ccc(F)cc1	-0.5
O=C(NC1CCCC1)C1C(c2ccc(C(F)(F)F)cc2)=Nc2ccccc2N1C(=O)c1cccc2ccccc12 (centres undefined)	2.8
C/C=C/c1cnc2c(c1)C(=O)N([C@H](C)CO)C[C@H](C)[C@@H](CN(C)S(=O)(=O)c1ccccc1)O2	1.2
Cc1ccc([C@H]2C[C@]34CN(Cc5ccccc5)S(=O)(=O)[C@H]3C[C@H]2O4)cc1	0.0
COc1ccc(NC(=O)N2CCCCN3[C@@H](CO)[C@H](c4ccc(C5=CCCC5)cc4)[C@@H]3C2)cc1	6.6
CO[C@H]1CN(C)C(=O)c2ccc(NS(=O)(=O)c3ccc(C)cc3)cc2OC[C@@H](C)N(Cc2nccs2)C[C@H]1C	4.9

Some of these compounds in order of heavy-atom count, ascending:
SMILES	MLL AF4-AF9 inh
COc1ccccc1-c1ccc([C@@H]2[C@@H](C#N)N(C(=O)NC3CCCC3)[C@@H]2CO)cc1	-0.8
C/C=C/c1cnc2c(c1)C(=O)N([C@H](C)CO)C[C@H](C)[C@@H](CN(C)S(=O)(=O)c1ccccc1)O2	1.2
COc1ccc(NC(=O)N2CCCCN3[C@@H](CO)[C@H](c4ccc(C5=CCCC5)cc4)[C@@H]3C2)cc1	6.6
C[C@@H]1CN([C@H](C)CO)C(=O)c2cc(C3=CCCCC3)cnc2O[C@H]1CN(C)C(=O)Nc1ccc(F)cc1	-0.5

New compounds follow
> C[C@H](NC(=O)C[C@@H]1C[C@H]2c3cc(NS(=O)(=O)c4ccc(F)cc4)ccc3O[C@H]2[C@@H](CO)O1)c1ccccc1
  MLL AF4-AF9 inh: -0.6

> C[C@@H]1CN([C@H](C)CO)C(=O)c2cccc(NC(=O)C3CCCCC3)c2O[C@H]1CN(C)C(=O)NC1CCCCC1
  MLL AF4-AF9 inh: -2.6

> C[C@H]1CN([C@@H](C)CO)C(=O)c2cc(-c3ccncc3)cnc2O[C@H]1CN(C)C(=O)c1ccc(F)cc1
  MLL AF4-AF9 inh: -3.4

> C[C@@H]1CN([C@@H](C)CO)C(=O)c2cc(NC(=O)Nc3ccc(F)cc3)ccc2O[C@H]1CN(C)C(=O)Nc1ccccc1
  MLL AF4-AF9 inh: -3.1

> CCOC(=O)[C@]12CCCC=C1N(Cc1cccc3ccccc13)C(=O)[C@H](CC(=O)NCC1CCCCC1)C2
  MLL AF4-AF9 inh: -0.7

> COc1ccccc1-c1csc(C(O)(c2ccccc2)C(F)(F)F)n1 (centres undefined)
  MLL AF4-AF9 inh: -2.6

> C/C=C/c1ccc2c(c1)O[C@H](CN(C)C(=O)C1CCOCC1)[C@@H](C)CN([C@@H](C)CO)S2(=O)=O
  MLL AF4-AF9 inh: -0.7

> CO[C@@H]1CC[C@@H]2CCOc3c(C#N)cccc3C(=O)N(C)C[C@@H](c3ccccc3)CC(=O)N(C)C[C@@H]1O2
  MLL AF4-AF9 inh: -4.1

> CO[C@H]1CN(C)C(=O)c2ccc(NC(=O)CC(F)(F)F)cc2OC[C@H](C)N(C(=O)C2CC2)C[C@H]1C
  MLL AF4-AF9 inh: -2.9

> OC[C@@H]1CN(Cc2ccccc2)C[C@H](n2cnc3c(NC4CC4)ncnc32)O1
  MLL AF4-AF9 inh: ?

Compound activity deposited in PubChem by Broad Institute.
